YopH PTP inh – inhibitors of Yersinia enterocolitica YopH tyrosine phosphatase | inhibition, %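 (about 10 µM by stock and volumes)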 | fluorescence Ex485/Em525 | hit rate 0.16% among 140,000;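 active = inhibition of 50% or more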;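 also: controls were vehicle for no effect and minimum signal wells for full effect; inactives centre near -20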
RecA intein inh – blocks M. tuberculosis RecA intein splicing. AID 2221. P9WHJ3. hit rate 0.75% among 290,000. inhibition, %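 (about 9 µM by stock and volumes)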. cell-free RecA intein splicing, fluorescence; in the data active = inhibition above about 30%; inconclusive = no clear call, values can overlap the other calls;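 also: 0% = vehicle wells and 100% = reference inhibitor control wells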
Target sequence (P9WHJ3 whole entry, looked up): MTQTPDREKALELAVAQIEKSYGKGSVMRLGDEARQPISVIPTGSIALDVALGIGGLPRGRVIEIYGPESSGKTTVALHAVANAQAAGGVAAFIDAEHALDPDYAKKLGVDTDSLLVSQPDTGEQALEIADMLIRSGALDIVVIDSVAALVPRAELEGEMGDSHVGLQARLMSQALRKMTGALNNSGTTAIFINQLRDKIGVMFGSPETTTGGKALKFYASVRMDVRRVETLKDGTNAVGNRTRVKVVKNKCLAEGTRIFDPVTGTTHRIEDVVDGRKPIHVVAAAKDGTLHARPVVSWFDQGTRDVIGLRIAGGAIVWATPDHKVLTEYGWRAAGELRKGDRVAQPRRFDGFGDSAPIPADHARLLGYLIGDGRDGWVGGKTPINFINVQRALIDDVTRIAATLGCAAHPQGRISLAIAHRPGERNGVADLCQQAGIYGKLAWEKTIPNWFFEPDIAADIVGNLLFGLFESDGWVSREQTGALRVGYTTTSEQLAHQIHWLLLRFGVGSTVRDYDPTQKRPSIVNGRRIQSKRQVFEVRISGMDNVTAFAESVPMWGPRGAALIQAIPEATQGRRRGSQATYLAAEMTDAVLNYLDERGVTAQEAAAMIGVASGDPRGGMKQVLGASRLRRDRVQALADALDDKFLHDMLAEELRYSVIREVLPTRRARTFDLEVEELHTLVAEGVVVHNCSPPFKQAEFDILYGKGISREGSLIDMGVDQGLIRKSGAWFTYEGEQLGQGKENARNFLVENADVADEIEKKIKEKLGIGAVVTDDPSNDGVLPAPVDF
Mtb bLac sens – beta-lactam sensitization of Mtb H37Rv. hit rate 0.27% among 330,000. AID 434955. inhibition, % at 25 µM. M. tuberculosis H37Rv growth with meropenem, percent inhibition; hits of this screen are not shown here;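 active = about 74% or more and at least 40 points above the plate without the antibiotic, then above 30% in a dose series; inconclusive = first-round hits that could not be retested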;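 also: growth measured after seven days incubation then overnight dye step; 0% = bacteria only wells and 100% = bacteria with antibiotic; twin plates without the antibiotic show which effects depend on it; some results filed as inactive read as strong as hits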
Arbovirus inh – arbovirus infection inhibition | hit rate 0.37% among 200,000 | AID 1251 | arbovirus infection cell-based antiviral screen | inhibition, % at 10 µM;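 active = inhibition from about 30%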;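 also: bluetongue infection of BSR cells; cell survival read as ATP light after 72 h; 0% = infected wells without compound and 100% = uninfected wells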
Mtb growth – M. tuberculosis H37Rv growth inhibitors, H37Rv strain (AID 1626). M. tuberculosis H37Rv growth inhibition; higher % means a stronger effect. inhibition, % at 10 µM; hits with a dose series show IC50 in µM. hit rate 0.95% among 220,000;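 active = confirmed in a dose series; inconclusive = inhibition above 80% but not taken into the dose series; inactive = below 80% or under 30% at every dose of the series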;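 also: bacteria incubated seven days before Alamar blue readout; 0% = bacteria only wells and 100% = bacteria with antibiotic wells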
Arbovirus inh repeat – second read-out of Arbovirus inh, no call of its own (marks repeat the call); inhibition, %; measured here: 10K subset replicate screen; many hits read low in the repeat;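 first of two repeat runs on a subset; 0% = infected and 100% = uninfected wells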
Active calls of the source: *; ? = inconclusive; . = no result given; & = joins results of further samples. A portion of the library; count on the stated rates, not on these rows.

SMILES	YopH PTP inh	RecA intein inh	Mtb bLac sens	Arbovirus inh	Mtb growth	others
CCOC(=O)N1CCN(CC(O)COc2ccc(C)c(C)c2)CC1 (stereo not given)	.	-4.7	-3	.	.
CCCNC(=O)c1ccc2c(c1)C1C3CCC(C3)C1C(c1ccccc1)N2 (stereo not given)	4	23	8	-37	5%
c1ccc2c(-c3cncc4ccccc34)cncc2c1	.	-2.1	-2	.	.
COc1ccc(CCNC(=S)Nc2ccc(S(=O)(=O)Nc3ncccn3)cc2)cc1OC	.	-1.5	-8	.	.
CCOCC(=O)Nc1nnc(COc2ccc(Cl)cc2)s1	-14	11	0	-4	-9%
O=C(CSc1nnc(-c2ccncc2)n1Cc1ccccc1)NC1CCCCC1	.	1.9	-11	.	.
O=C(NCc1ccccc1)C1(C(F)(F)F)CC(CCCO)CCCO1 (stereo not given)	.	0.0	-14	.	-6%
CCOc1cc(C(=O)NCCCn2ccnc2)cc(OCC)c1OCC	-25	-0.4	3	2	-5%
O=C1NC(=O)c2cc(NC(=O)c3cccc4ccccc34)ccc21	.	-3.5	-8	.	.
CCCCn1c(=O)[nH]c(=O)c2c1nc(-c1ccsc1)n2Cc1ccccc1	20	-1.3	-2	-1	6%
COc1ccccc1C(=O)NCCC(=O)Nc1ncccc1C	.	-0.3	-2	.	.
COc1ccc(-c2cc(CNS(=O)(=O)c3ccccc3)on2)cc1	.	2.3	0	-1	6%
COc1ccccc1N1C(=O)C2C(c3ccc(F)cc3)NN(C(=O)c3ccc(C)cc3)C2C1=O (stereo not given)	.	2.7	-9	7	5%
O=[N+]([O-])c1cccc(C2=NC(c3ccccc3)CO2)c1 (stereo not given)	5	0.2	5	1	-4%
COc1ccccc1CC(=O)N1CCC(CCC(=O)NC2CC2)CC1	.	-1.7	-3	.	.
COc1ccc(CNc2nc(NCc3ccc(OC)cc3)c3[nH]cnc3n2)cc1	.	-3.9	-11	.	-6%
CC1CC(C)CN(C(=O)COC(=O)Cc2ccc(Br)cc2)C1 (stereo not given)	.	-2.5	2	.	.
O=C(NCc1ccccn1)c1cc(S(=O)(=O)N2CCCCCC2)ccc1Cl	.	1.2	-17	.	.
COc1cc2ccccc2cc1C(=O)Nc1ccncc1	.	0.4	-2	.	.
CCOC(=O)C(Cc1ccccc1)(Cc1ccccc1)C(C)=O	.	7.6	2	.	.
O=C(COC(=O)c1ccc(Br)cc1)Nc1ccccc1Br	.	2.0	27	14	13%
Cc1nn(CC(=O)Nc2ccc(S(N)(=O)=O)cc2)c(=O)c2ccccc12	.	-2.8	2	.	.
NC(=O)NC(=O)COC(=O)c1ccc(Cl)c(S(=O)(=O)N(Cc2ccccc2)c2ccc(Cl)cc2)c1	-45	24	43	-3	-8%
COc1ccc(C(=O)Nc2cc3c4c(c2)CC(=O)N4CCC3)c(OC)c1	.	14	2	.	.

Structures shown so far with an NH in an aromatic ring, in the order listed:
SMILES	YopH PTP inh	RecA intein inh	Mtb bLac sens	Arbovirus inh	Mtb growth	others
CCCCn1c(=O)[nH]c(=O)c2c1nc(-c1ccsc1)n2Cc1ccccc1	20	-1.3	-2	-1	6%
COc1ccc(CNc2nc(NCc3ccc(OC)cc3)c3[nH]cnc3n2)cc1	.	-3.9	-11	.	-6%

Carrying on:
SMILES	YopH PTP inh	RecA intein inh	Mtb bLac sens	Arbovirus inh	Mtb growth	others
c1ccc(Oc2nc(N3CCOCC3)nc(N3CCOCC3)n2)cc1	-25	0.3	-10	14	-4%
Nc1nc(SCC(=O)NCC2CCCO2)[nH]c(=O)c1NC(=O)c1ccco1 (stereo not given)	.	-3.6	-2	2	-3%
CC(C)(C)/C(O)=C/c1nc2ccccc2[nH]c1=O	-17	-4.7	-1	-4	2%
O=[N+]([O-])c1ccc(Nc2ccccn2)c([N+](=O)[O-])c1	.	1.3	1	6	8%
N#Cc1cnc(N)c(Br)c1	.	2.7	17	11	-11%
CCNC(=S)Nc1cc(C)ccn1	-32	-1.3	-4	5	4%
COc1ccc(CNS(=O)(=O)c2ccc(OC)cc2)cc1	-32	9.0	-10	8	17%
CCCc1[nH]nc2c1C(c1ccc(OCCN3CCOCC3)c(OC)c1)C(C#N)=C(N)O2 (stereo not given)	-40	32*	0	-1	0%
COc1ccc(C(=O)OCC(=O)NCC2CCCO2)cc1 (stereo not given)	.	1.1	-6	25	7%
Cc1ccn2c(C(=O)CSc3ccc(Cl)cc3)c(C)nc2c1	-38	0.3	-6	-8	-1%
CCOc1ccc(NC(=O)Cn2c(=O)oc3ccccc32)cc1	-19	-1.7	-14	1	-1%
Cc1cccc(C)c1NC(=O)C1CCCN1S(=O)(=O)c1ccc(-c2ccc(=O)[nH]n2)s1 (stereo not given)	.	-1.7	-9	.	.
Cc1ccc(Cn2c(SC3CCOC3=O)nc3ccccc3c2=O)cc1 (stereo not given)	-23	0.7	4	2	-5%
COc1ccc(NC(=S)NCc2cccs2)c(OC)c1	-11	-1.8	-6	-10	1%
CN1CCN(NC(=O)c2ccccc2F)CC1	-54	-1.0	-8	-3	3%
Cc1nnc(SCC(=O)NNC(=O)c2ccc(Cl)cc2)s1	.	1.8	-2	.	.
COC(=O)c1ccccc1NC(=O)N1CCN(c2ccccc2F)CC1	.	3.2	8	5	5%
CN(C)c1ccc(/C=N/NC(=O)c2ccccc2O)o1	.	2.6	0	-2	-8%
CCOC(=O)c1ccc(N=c2sc(C(=O)OC)cc(=O)n2CCCN2CCOCC2)cc1	-33	1.2&2.5	98&99	2	?	Arbovirus inh repeat=-18
CCc1cn(S(=O)(=O)c2ccccc2OC)nc1N	-9	0.6	2	-10	-2%
C/C=C/C(=O)OCC(=O)Nc1ccc(C)c(S(=O)(=O)N(C)C)c1	.	-5.2	2	5	-7%
Nc1nc(NC(=O)CCCC(=O)O)nn1-c1ccccc1	-45	-1.8	-10	5	-6%
CC(=O)c1cccc(NC(=O)c2csc(-n3nc(C)cc3C(F)(F)F)n2)c1	-3	0.6	-5	5	-1%
CN(C)c1ccc(/C=C/C=C2/C(=O)NC(=O)N(c3ccccc3)C2=O)cc1	.	-3.2	.	-31	2.5µM*
N#Cc1cc(-c2ccccc2)nnc1Oc1ccccc1Cl	-44	-5.2	4	1	-2%
COc1ccc2c(C(=O)c3ccc(C)cc3)n(CCC(N)=O)[n+]([O-])c2c1	.	2.1	-2	.	.
CCOc1ccc(S(=O)(=O)NCc2ccncc2)cc1	20	-2.0	-1	11	0%
COc1cc(C(=O)O)c([N+](=O)[O-])c(OC)c1OC	.	-1.2	0	.	-7%
CCn1cc(C(=O)N2CCC3(CC2)OCCO3)c(=O)c2cc(S(=O)(=O)N3CCCC3)ccc21	-25	-2.2	8	4	3%
O=C(COC(=O)c1ccc([N+](=O)[O-])o1)c1ccccc1	-26	-2.1	5	2	-1%
COc1ccc(CCNC(=O)Cn2cnc3c(nnn3Cc3ccc(C)cc3)c2=O)cc1OC	-13	-0.5	4	-6	-20%
COc1cccc(N2C(=O)c3ccncc3C2=O)c1	-36	-0.4	-5	8	.
CN1CCN(c2ccc([N+](=O)[O-])cc2C(=O)N2CCOCC2)CC1	-21	2.0	-2	9	.
Cc1noc(C(=O)NCc2ccccc2)c1Cl	-47	-4.5	-5	2	0%
COC(=O)c1cc(NC(=O)C23CCC(C)(C(=O)O2)C3(C)C)cc(C(=O)OC)c1 (stereo not given)	13	0.4	2	3	-13%
Cc1cccn2c(=O)c(C=O)c(N3CCN(c4ccccc4)CC3)nc12	.	2.4	2	-1	1%
COCCCNC(=O)/C(C#N)=C/c1ccc(OCC(=O)O)c(OC)c1	-11	3.3	0	1	-3%
CCC(C)(C(=O)NC1CCCCC1)N(C(=O)CC1NC(=O)NC1=O)c1c(C)n(C)n(-c2ccccc2)c1=O (stereo not given)	.	-3.1	-1	13	-4%
C#CCSc1nnc(-c2sc3ccccc3c2Cl)o1	-16	-2.4	?	-8	.
Cc1ccc(NC(=O)COC(=O)c2cc(-c3cccs3)nn2-c2ccccc2)cc1[N+](=O)[O-]	-3	0.3	-2	3	-11%
O=C(O)CNC(=S)N(Cc1ccccc1F)C1CCCCC1	.	-3.5	-8	-3	5%
Cc1ccccc1CN(c1ccc(C(=O)Nc2ccccc2C(=O)N2CCCC2)cc1)S(C)(=O)=O	-7	-0.4	-1	2	0%
CS(=O)(=O)N(CC(=O)NCc1ccc2c(c1)OCO2)c1ccc(Cl)cc1	-19	0.2	2	-1	.
CC(C)NC(=O)c1cc(-c2ccc3c(c2)OCO3)on1	.	-0.4	-9	.	.
C=CCn1c(SCC(=O)c2ccc(Br)cc2)nnc1C(C)NC(=O)Cc1ccc(OC)cc1 (stereo not given)	-1	-2.0	-11	4	-3%
CCCn1c(C(C)Nc2nc(-c3ccc(C)cc3)cs2)nc2ccccc21 (stereo not given)	.	13	43	.	.
COc1cc(/C=N\NC(=O)c2ccc(Cn3cc(Br)c([N+](=O)[O-])n3)o2)cc(OC)c1O	-44	2.1	5	-7	8%
S=c1[nH]nc(COc2ccccc2)n1/N=C/c1cccc(Cl)c1Cl	.	5.3	?	.	.
Cc1cc(S(=O)(=O)NC2CCCCC2)c(C)s1	-46	0.2	0	7	-11%
CCOC(=O)Cc1csc(NC(=O)COc2ccccc2)n1	28	-3.2	-3	2	-7%
O=C(CSc1ccccc1)Nc1ccccc1C(=O)O	-45	3.3	18	9	-6%
O=C(CCSc1nc(-c2ccco2)cc(C(F)(F)F)n1)NCc1ccccn1	-32	4.0	-11	-7	2%
Cn1cnc2c1c(=O)n(Cc1c(Cl)cccc1Cl)c(=O)n2C	11	-4.6	-5	6	-6%
CN(C)CCC(=O)c1ccc2c(c1)OCO2	-36	-1.5	55	-3	-6%
COc1ccc(-c2[nH]ncc2/C=C(/C#N)C(=O)NC2CCCCCC2)cc1	-10	1.6	25	-25	13%
O=C(CSc1ccc([N+](=O)[O-])cn1)Nc1cc(C(F)(F)F)ccc1N1CCOCC1	.	1.1	3	.	.
O=C(CN1CCN(Cc2ccccc2F)C1=O)NCCN1CCOCC1	-20	-1.4	0	-3	-1%	Arbovirus inh repeat=-1
Cc1ccc(NC(=O)CSc2nnc(-c3ccco3)c(-c3ccco3)n2)cc1	-41	21	67	5	-4%
CC(=O)N=Cc1c(C)c(C#N)c(=O)n(C)c1O	.	2.9	-2	4	1%
O=C(O)C1CCCN(S(=O)(=O)c2cccc3cccnc23)C1 (stereo not given)	0	.	-1	8	-17%
Remaining list, next part:
SMILES	YopH PTP inh	RecA intein inh	Mtb bLac sens	Arbovirus inh	Mtb growth	others
O=C1c2cccc3c2[C@H](CCC3)CN1[C@@H]1CN2CCC1CC2	.	-3.1	-3	.	-4%
NC(=O)CN1CCCN(S(=O)(=O)c2ccc(Br)cc2)CC1	-10	-3.5	-2	-2	-3%
O=C(Cn1cccn1)c1ccccc1	.	1.5	-4	-1	0%
CCN(/N=C/c1ccc(Cl)cc1)c1cc(=O)n(C)c(=O)[nH]1	-17	3.4	-2	-9	8%
CCSc1nnc(NC(=O)c2cc(C)on2)s1	-10	-1.5	-6	10	-2%
CCCNC(=O)c1cccc(Cn2nc(C)c(Br)c2C)c1	-6	3.7	-2	3	2%

Of the compounds above, these contain a Cl atom:
SMILES	YopH PTP inh	RecA intein inh	Mtb bLac sens	Arbovirus inh	Mtb growth	others
CCOCC(=O)Nc1nnc(COc2ccc(Cl)cc2)s1	-14	11	0	-4	-9%
O=C(NCc1ccccn1)c1cc(S(=O)(=O)N2CCCCCC2)ccc1Cl	.	1.2	-17	.	.
NC(=O)NC(=O)COC(=O)c1ccc(Cl)c(S(=O)(=O)N(Cc2ccccc2)c2ccc(Cl)cc2)c1	-45	24	43	-3	-8%
Cc1ccn2c(C(=O)CSc3ccc(Cl)cc3)c(C)nc2c1	-38	0.3	-6	-8	-1%
Cc1nnc(SCC(=O)NNC(=O)c2ccc(Cl)cc2)s1	.	1.8	-2	.	.
N#Cc1cc(-c2ccccc2)nnc1Oc1ccccc1Cl	-44	-5.2	4	1	-2%
Cc1noc(C(=O)NCc2ccccc2)c1Cl	-47	-4.5	-5	2	0%
C#CCSc1nnc(-c2sc3ccccc3c2Cl)o1	-16	-2.4	?	-8	.
CS(=O)(=O)N(CC(=O)NCc1ccc2c(c1)OCO2)c1ccc(Cl)cc1	-19	0.2	2	-1	.
S=c1[nH]nc(COc2ccccc2)n1/N=C/c1cccc(Cl)c1Cl	.	5.3	?	.	.
Cn1cnc2c1c(=O)n(Cc1c(Cl)cccc1Cl)c(=O)n2C	11	-4.6	-5	6	-6%
CCN(/N=C/c1ccc(Cl)cc1)c1cc(=O)n(C)c(=O)[nH]1	-17	3.4	-2	-9	8%
